# NS1 inh – inhibitors of influenza NS1 protein function; AID 2326; Potency, µM (top dose mostly 46.1 µM), for the others: at the highest dose activity, positive = more growth; S. cerevisiae slowed by influenza A NS1, growth recovery by OD600; actives 0.4% (n = 270,000); also: actives are rising curves; nearly all actives have a fitted effect of over 50% in size
#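 S. cerevisiae expressing influenza A NS1, grown in glucose, washed, then diluted 1:100 into pH 6.0 -URA galactose medium with 23 nl compound. Growth recovery read as OD600; NS1-free strain serves as control.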
# SARS PLpro yeast – blocks SARS-CoV papain-like protease in a yeast assay | actives 0.19% (n = 330,000) | S. cerevisiae expressing SARS-CoV PLpro, growth rescue; control for the full effect not named in the record | Potency, µM (doses to about 32.9 µM), for inactives: top-dose activity, positive = growth rescue; also: 0% is about no effect; nearly all actives have a fitted effect of over 55% in size; growth read by luminescence after 48 h
# RE007 growth inh – less growth of the S. pombe RE007 Vpr strain. actives 0.21% (n = 360,000). S. pombe RE007 Vpr strain, BacTiter-Glo ATP luminescence, 24 h; control for the full effect not named in the record. Potency, µM (highest dose often 92.2 µM), inactives show at the top dose activity change, negative = less growth; active = well fitted falling curve with a large enough effect; inconclusive = small, poorly fitted or top-dose-only effect; inactive = no such curve, though single readings can be large or run the other way;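 also: % is scaled to controls: 0 for no effect and ±100 for the full control effect; nearly all actives have a fitted effect of over 50% in size; the assay follows cell death caused by Vpr and the record does not say whether a fall means rescue or toxicity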
#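 Fission yeast strain RE007, carrying one chromosomally integrated HIV-1 vpr copy, was seeded at OD 0.01 in PMG+AL medium with 23 nL pinned compound. After 24 h at 30 °C and 99% humidity, viability was read by BacTiter-Glo luminescence.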
# Cruzain inh Det – inhibitors of Trypanosoma cruzi cruzain with detergent. P25779. purified cruzain, Z-FR-AMC fluorescence, 0.01% Triton. Potency, µM, for the others: max response, negative = inhibition, actives largely listed as inhibitors. actives 0.43% (n = 200,000); active = well fitted curve in the direction sought with a large enough effect; inconclusive = small, poorly fitted or top-dose-only effect, or another doubt; inactive = no such curve, though single readings can be large; an effect the other way counts as inactive or inconclusive;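 also: plate controls were neutral wells for no effect and buffer without enzyme for full effect; nearly all actives have a fitted effect of over 40% in size; top concentration of the series not given in the record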
# Target sequence (P25779 123-467 limits assumed): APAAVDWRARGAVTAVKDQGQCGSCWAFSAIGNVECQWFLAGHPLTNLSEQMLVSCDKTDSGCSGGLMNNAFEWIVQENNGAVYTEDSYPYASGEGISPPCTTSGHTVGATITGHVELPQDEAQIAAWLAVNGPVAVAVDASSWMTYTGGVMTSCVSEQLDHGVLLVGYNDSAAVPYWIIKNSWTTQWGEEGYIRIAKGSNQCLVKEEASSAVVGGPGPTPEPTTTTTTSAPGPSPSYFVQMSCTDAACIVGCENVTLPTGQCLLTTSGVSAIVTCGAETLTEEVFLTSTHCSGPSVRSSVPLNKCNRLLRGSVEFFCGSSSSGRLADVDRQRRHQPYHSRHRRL
#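 Compounds were screened in titration against cruzain (1.5 nM) with 0.01% Triton X-100 to counter colloidal aggregation. Activity was the AMC fluorescence increase over 60 s after adding 2 uM Z-FR-AMC at pH 5.5.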
# StopGo reporter – FMDV 2A StopGo reporter, luciferase signal. AID 1159524. human cells with a luciferase reporter of 2A StopGo recoding; control for the full effect not named in the record. Potency, µM (series often up to 57.9 µM), without a hit: top-dose signal change, negative = less light. actives 1.2% (n = 410,000); active = well fitted falling curve with a large enough effect; inconclusive = small, poorly fitted or top-dose-only effect; inactive = no such curve, though single readings can be large or run the other way; tested in HEK293T cells; also: % is scaled to controls: 0 for no effect and ±100 for the full control effect; nearly all actives have a fitted effect of over 45% in size; luciferase light after 4 h
# LASV entry inh – Lassa virus entry inhibition; Lassa virus pseudotype entry inhibition, cell reporter; control for the full effect not named in the record; Potency, µM (doses to about 37.9 µM), inactives show at the top dose activity change, negative = inhibition, most hits filed as inhibitors; actives 1.2% (n = 300,000); AID 540256; active means well fitted inhibition curve with a large enough effect; inconclusive means small, poorly fitted or top-dose-only effect, or effect the other way; inactive means flat fitted curve, though single readings scatter; tested in HEK293 cells; also: % is scaled to controls: 0 for no effect and ±100 for the full control effect; nearly all actives have a fitted effect of over 50% in size; luciferase read-out
# Marburg entry inh – Marburg virus entry inhibition. actives 1.8% (n = 300,000). Marburg virus pseudotyped entry inhibition, cell reporter; control for the full effect not named in the record; about a third of the inactives were read at about 46 µM. Potency, µM (series often up to 37.8 µM), inactives show at the highest dose activity change, negative = inhibition, usual class: inhibitors. AID 540276; active = well fitted inhibition curve with a large enough effect; inconclusive = small, poorly fitted or top-dose-only effect, or effect the other way; inactive = flat fitted curve, though single readings scatter; tested in HEK293 cells; about a fifth of its hits are not listed in these tables; also: % is scaled to controls: 0 for no effect and ±100 for the full control effect; luciferase read-out
# Cruzain noTriton – inhibitors of Trypanosoma cruzi cruzain without detergent; actives 2.3% (n = 200,000); purified cruzain, Z-FR-AMC fluorescence, no detergent; P25779; Potency, µM, without a hit: max response, negative = inhibition, actives largely listed as inhibitors; active = well fitted curve in the direction sought with a large enough effect; inconclusive = small, poorly fitted or top-dose-only effect, or another doubt; inactive = no such curve, though single readings can be large; an effect the other way counts as inactive or inconclusive;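 also: plate controls were enzyme without inhibitor for no effect and buffer without enzyme for full effect; nearly all actives have a fitted effect of over 40% in size; top concentration of the series not given in the record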
#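 Detergent-free condition (0.00005% Triton X-100) in acetate buffer pH 5.5 with DTT. 1.5 nM enzyme and compound were pre-mixed 15 min, then 2 uM Z-FR-AMC substrate added; reaction progress from fluorescence change between first and third reads (60 s).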
# Starred values were filed as active, the others as inactive; ? = inconclusive; · = not tested or not shown; [ ] = dose if it differs, or a comment. Unless noted, calls follow the shape of the dose curve; as a rule, active means well fitted rising curve with a large enough effect; inconclusive means small, poorly fitted or top-dose-only effect; inactive means no such curve, though single readings can be large or run the other way. Potency is read from the fitted curve at half-maximal effect.
SMILES,NS1 inh,SARS PLpro yeast,RE007 growth inh,Cruzain inh Det,StopGo reporter,LASV entry inh,Marburg entry inh,Cruzain noTriton
CS(=O)(=O)N1CCN(C(=O)COc2ccccc2)CC1,0%,-1%,6%,·,7%,8%,25%[14.2 µM],·
Cc1ccc(-c2nc3c(c(SCC(=O)Nc4cccc(C(=O)O)c4)n2)Cc2cccc(C)c2O3)cc1,·,-3%,·,-1.3%,·,-7%[46.1 µM],-26%[46.1 µM],-1%
CCCCn1nc(C(=O)Nc2nc3c(s2)CCCC3)c2ccccc2c1=O,5%,21%,-1%,-4.9%,-4%,-10%,-4%,-14%
Cc1[nH]c(=O)c(C#N)cc1-c1ccc2nccn2c1,-8%,·,·,-3.9%,·,?,?,6%
COCCNC(=O)c1ccc(CS(=O)(=O)c2ccccc2OC)o1,4%,3%,11%,·,-1%,26%[46.1 µM],?,·
CCc1ccc2[nH]c(=O)c(C(c3nnnn3CC3CCCO3)N3CCCc4ccccc43)cc2c1 (stereo not given),-29%,3%,-5%,-6.7%,13%,-25%,9.2µM*,15%
NC(=S)NNC(=O)c1cccc(Cl)c1,3.2µM*,-1%,9%,·,-7%,12%,-11%[14.2 µM],·
O=[N+]([O-])c1ccccc1/C=N/N1CCN(c2ccc(Cl)cc2)CC1,0%,-13%,-17%,-2.9%,-10%,0%,-19%,5%
CCOC(=O)CC(NC(=O)Cn1nnc(-c2ccc(C(F)(F)F)cc2)n1)c1ccc(OC)cc1 (stereo not given),·,·,·,-0.8%,-21%,-11%[46.1 µM],-23%[46.1 µM],3%
COP(=O)(Cc1ccc(C#N)o1)OC,5%,1%,10%,·,8%,3%,2%,·
CCOC(=O)c1ccccc1N=N/C(C(C)=O)=C(/C)O,-22%,?,-5%,-5.1%,-18%,-5%,?,1%
Cc1cccc(NC(=O)c2sc(Cl)nc2C)c1C,12%,4%,-8%,4.0%,-11%,2%,-3%,2%
Cc1ccc(NC(=O)c2ccccc2F)cc1S(=O)(=O)N1CCCCCC1,·,-1%,-2%,·,?,?,-24%[46.1 µM],·
CCCc1nn2c(=O)cc(COC(=O)c3ccccc3NC(=O)c3ccc(OCC)cc3)nc2s1,·,·,·,1.8%,42%[activator],9%[46.1 µM],·,8%
CCCC1=NCCn2cccc21,3%,-4%,-15%,0.9%,-23%,3%,15%,9%
Cc1ccc(C(=O)NCC(=O)OCC(=O)/C=C2\N(C)c3ccccc3C2(C)C)cc1C,-15%,-6%,17%,-15%,-23%,2%,4%,-7%
Cc1ccc(-c2nnc(Nc3ccc(Cl)cc3)c3ccccc23)cc1S(=O)(=O)NCC1CCCO1 (stereo not given),·,·,·,-7.2%,20%,-29%[46.1 µM],?,-14%
COc1cc(CN2CC3CC(C2)c2cccc(=O)n2C3)cc(OC)c1OC (stereo not given),2%,-5%,0%,0.6%,-11%,-2%,12%,10%
CCCCC(CC(O)COCC(C)C)C(=O)NNC(=S)Nc1ccccc1 (stereo not given),5%,4%,0%,-2.8%,85%[activator],·,·,3%
c1ccc(-n2nnnc2Sc2n[nH]c(-c3ccncc3)n2)cc1,2%,-1%,0%,-4.2%,11%,5%,-2%,1%
Cc1nc2c(C)cccn2c(=O)c1NC(=O)c1cccs1,·,-4%,0%,·,-13%,6%,-14%[46.1 µM],·
O=C(NCc1ccccc1)c1nnc(Cc2cccc(F)c2)o1,·,·,·,-1.9%,-2%,-30%[46.1 µM],·,-5%
O=C(Cc1ccc(F)cc1)N/N=C/c1ccncc1,15%,-5%,-19%,-0.2%,8%,1%,-1%,10%
O=C(c1ccc(-c2nnc(Nc3cccc(Cl)c3)c3ccccc23)cc1)N1C[C@H]2C[C@H](C1)c1cccc(=O)n1C2,-14%,7%,-6%,-5.2%,?,?,?,?
O=C(Cn1c(=O)n(Cc2nc(-c3ccccc3)no2)c(=O)c2ccccc21)Nc1cccc(Cl)c1,·,·,·,-3.0%,?,-1%[46.1 µM],·,?

# Reformatted as tab-separated lines: 2 of the compounds above
Compound	NS1 inh	SARS PLpro yeast	RE007 growth inh	Cruzain inh Det	StopGo reporter	LASV entry inh	Marburg entry inh	Cruzain noTriton
CCOC(=O)CC(NC(=O)Cn1nnc(-c2ccc(C(F)(F)F)cc2)n1)c1ccc(OC)cc1 (stereo not given)	·	·	·	-0.8%	-21%	-11%[46.1 µM]	-23%[46.1 µM]	3%
CS(=O)(=O)N1CCN(C(=O)COc2ccccc2)CC1	0%	-1%	6%	·	7%	8%	25%[14.2 µM]	·

# (further entries)
SMILES,NS1 inh,SARS PLpro yeast,RE007 growth inh,Cruzain inh Det,StopGo reporter,LASV entry inh,Marburg entry inh,Cruzain noTriton
C=CCN1C(=O)NC(=O)/C(=C/c2ccc(OC)c(CSc3ccccn3)c2)C1=O,18%,2%,-7%,2.1%,-19%,9%,13%,2%
Cc1[nH]c2ccccc2c1/C=N/Nc1nc(Nc2ccccc2)nc(N2CCOCC2)n1,-54%,-21%,7%,-7.7%,-11%,5.8µM*,0.33µM*,-2%
Cc1ccc(NC(=O)CN2CCC(NC(=O)Cc3ccccc3)CC2)cc1C,6%,?,11%,1.7%,·,4%,-14%,0%
COCCNC(=S)NC1CC2CCCC(C1)N2Cc1cccs1 (stereo not given),-4%,6%,-4%,2.4%,·,-16%,?,5%
O=c1oc2ccccc2cc1-c1nc(-c2ccccc2)no1,-12%,3%,-8%,-0.4%,-34%,?,?,-4%
CC1(C)CC(=O)C(C=NCCN2CCN(C(=O)c3ccc(Br)cc3)CC2)=C(O)C1,-9%,?,22%,-2.1%,9%,13%,18%,?
CCn1ncc(Br)c1C(=O)Nc1ccc(F)cc1F,1%,-5%,-20%,2.0%,-3%,-19%,28%,0%
OC[C@@H]1[C@@H](c2ccc(Cl)cc2)C(c2cccc(Cl)c2)=NN1c1ccccc1,·,-66%,-2%,2.0%,-21%,·,·,25µM*
Cc1ccc(C)c(N2CCN(C(=O)CCC(=O)Nc3ccc4nc(N5CCCCC5)cc(C)c4c3)CC2)c1,·,·,·,-3.4%,-5%,?,?,11%
CCc1ccc2c(c1)C(=O)CCC2,·,·,9%,·,12%,26%[46.1 µM],1%[46.1 µM],·
CCN(CC)CCNC(=O)c1ccc(NC(=O)c2cccc(-n3cnnn3)c2)cc1,·,-2%,-21%,·,-31%,-7%,17%,·
CC(C)[C@H](NC(=O)c1ccc(F)cc1)C(=O)NC1=NCCS1,·,-3%,2%,·,21%,0%,-14%,·
O=C(NC1CCCCC1)C(c1cccs1)N(C(=O)c1ccccn1)c1ccccc1 (stereo not given),6%,-4%,6%,1.7%,30%[activator],4%,-14%,6%
O=C(Nc1ccccc1Cl)c1sc2cccc(Cl)c2c1Cl,·,·,·,0.5%,51%[activator],24%[46.1 µM],·,3%
COc1ccccc1OCc1nc2ccccc2s1,-72%,-7%,?,-3.9%,-4%,10µM*,?,-8%
CC1CCN(C(=O)CCc2ccc(Oc3cc([N+](=O)[O-])cc([N+](=O)[O-])c3)cc2)CC1,0%,-73%,62%,-11%,?,-10%,?,-13%
NC(=O)c1cnn(Cc2ccc(Cl)cc2)c1N,1%,8%,-15%,4.2%,-4%,-11%,2%,-9%
COc1ccc(S(=O)(=O)N2CCN(Cc3ccc4c(c3)OCO4)CC2)cc1F,-4%,2%,4%,·,-25%,?,0%[46.1 µM],·
Cc1ccn2cc(-c3cccc(NC(=O)C(C)C)c3)nc2c1,7%,-1%,-13%,·,30%,?,5%,·
O=C(O)c1ccccc1-c1ccccc1C(=O)NCc1ccccc1Cl,22%,4%,4%,·,-16%,·,·,·
Cc1cnc(NC(=O)CSc2nnc(-c3ccc(Cl)cc3Cl)n2N)s1,-86%,3%,-5%,5.3%,-9%,-1%,0%,-3%
COc1cc2c(cc1OC)C(C)N(C(=O)C1=NN(c3cccc(C)c3)C(=O)CC1)CC2 (stereo not given),10%,-14%,-2%,·,21%,8%[46.1 µM],-16%[46.1 µM],·
CC(=O)NCCSCCNC(C)=O,4%,1%,-4%,2.5%,0%,-4%,15%,-11%
NC(=O)C1CC=CCC1C(=O)OCC(Cl)=C(Cl)Cl (stereo not given),-2%,?,-3%,-3.7%,2%,25%,24%,-7%
CN(C(=O)Cn1c(=O)n(CCC(=O)NCc2ccc3c(c2)OCO3)c(=O)c2sccc21)c1ccccc1,·,·,·,-2.2%,19%,3%[46.1 µM],5%[46.1 µM],-3%
CN(C)c1ccc(C(=O)Nc2ccc(S(=O)(=O)NC3=NCCCCC3)cc2)cc1,-15%,16%,7%,-17%,24%,15%,2%,-22%
Cc1ccc(NC(=O)c2cc(S(=O)(=O)N(C)C)ccc2N2CCCC2)cc1F,17%,-3%,-23%,·,-11%,-10%,-29%,·
CN(C)CCCNC(=S)N1CCC(c2nc3ccccc3[nH]2)CC1,-4%,1%,-1%,·,-9%,·,·,·
COc1ccc(NS(=O)(=O)c2ccc(-n3cccn3)cc2)cc1OC,·,·,·,-2.3%,?,-17%[46.1 µM],·,-8%
COCCNC(=O)c1ccccc1NS(=O)(=O)c1ccc(C)c([N+](=O)[O-])c1,-1%,-7%,1%,-2.0%,10%,0%,-2%,-16%

# Exported as labelled records: 3 of the compounds above.
CC1(C)CC(=O)C(C=NCCN2CCN(C(=O)c3ccc(Br)cc3)CC2)=C(O)C1
  NS1 inh = -9%; SARS PLpro yeast = ?; RE007 growth inh = 22%; Cruzain inh Det = -2.1%; StopGo reporter = 9%; LASV entry inh = 13%; Marburg entry inh = 18%; Cruzain noTriton = ?

OC[C@@H]1[C@@H](c2ccc(Cl)cc2)C(c2cccc(Cl)c2)=NN1c1ccccc1
  NS1 inh = ·; SARS PLpro yeast = -66%; RE007 growth inh = -2%; Cruzain inh Det = 2.0%; StopGo reporter = -21%; LASV entry inh = ·; Marburg entry inh = ·; Cruzain noTriton = 25µM*

Cc1ccc(C)c(N2CCN(C(=O)CCC(=O)Nc3ccc4nc(N5CCCCC5)cc(C)c4c3)CC2)c1
  NS1 inh = ·; SARS PLpro yeast = ·; RE007 growth inh = ·; Cruzain inh Det = -3.4%; StopGo reporter = -5%; LASV entry inh = ?; Marburg entry inh = ?; Cruzain noTriton = 11%

# Source: PubChem BioAssay
